Mtb MenB inh: inhibitors of Mycobacterium tuberculosis MenB enzyme; P9WNP5; MenB enzyme assay, absorbance read-out; some hits fall short of the stated cut; inhibition, %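 (about 12 µg/mL by stock and volumes)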; 100,000 compounds, 0.43% hits;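 active = mean of two replicates above 30%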;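 also: 0% = no compound and 100% = wells with inactive enzyme; the first replicate is given; strong numbers were not always called active; inactives centre near -10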
Target sequence (P9WNP5 whole entry, looked up): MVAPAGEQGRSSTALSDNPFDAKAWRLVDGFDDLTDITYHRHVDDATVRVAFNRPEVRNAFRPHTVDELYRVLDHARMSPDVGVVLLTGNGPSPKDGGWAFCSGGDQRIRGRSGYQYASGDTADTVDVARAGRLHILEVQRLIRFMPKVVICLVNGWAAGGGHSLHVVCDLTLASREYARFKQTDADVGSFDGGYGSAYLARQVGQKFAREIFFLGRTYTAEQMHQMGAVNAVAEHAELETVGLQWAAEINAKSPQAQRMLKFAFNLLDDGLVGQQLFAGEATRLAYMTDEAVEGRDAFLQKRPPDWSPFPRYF
Polio RdRp inh: poliovirus RNA polymerase inhibition; poliovirus polymerase elongation, fluorescence polarization; stronger effect = lower value; AID 588519; P03300; 150,000 compounds, 0.66% hits; % elongation, % (compound at 16.7 µg/mL); in the data active = % elongation below about 90%; also: some results filed as inactive read as strong as hits
Mtb MbtI inh: MbtI salicylate synthase inhibition; P9WFX0; purified MbtI enzyme, fluorescence intensity read-out; inhibition, %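 (about 17 µg/mL by stock and volumes)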; 100,000 compounds, 0.89% hits; AID 493033;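 active = above 50% in both replicates, above 80% if mildly self-fluorescent; inactive = the rest, strongly fluorescent compounds included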;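 also: 0% = mean of negative and 100% = mean of positive controls; one replicate is shown; some compounds called inactive have numbers as strong as hits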
Target sequence (P9WFX0 whole entry, looked up): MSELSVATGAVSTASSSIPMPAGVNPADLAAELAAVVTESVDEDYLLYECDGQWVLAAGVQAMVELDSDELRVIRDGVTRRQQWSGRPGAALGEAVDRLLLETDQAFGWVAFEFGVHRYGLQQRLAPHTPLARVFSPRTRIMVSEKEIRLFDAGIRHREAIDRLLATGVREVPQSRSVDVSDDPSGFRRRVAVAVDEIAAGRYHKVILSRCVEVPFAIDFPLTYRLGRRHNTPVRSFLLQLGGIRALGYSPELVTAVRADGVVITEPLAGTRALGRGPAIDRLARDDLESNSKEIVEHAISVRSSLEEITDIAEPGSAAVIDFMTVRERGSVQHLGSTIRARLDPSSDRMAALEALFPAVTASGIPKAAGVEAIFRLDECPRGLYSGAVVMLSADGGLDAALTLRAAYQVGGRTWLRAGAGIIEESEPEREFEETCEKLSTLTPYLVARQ
Polio RdRp inh intensity: further read-out of Polio RdRp inh, marked with its call; % elongation; measured here: total intensity read-out; formula for this scale not given here;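 total fluorescence in place of polarization; lower means less elongation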
Active calls of the source: *; i = inactive; · = not tested or not shown; & = joins results of further samples; ! = not confirmed by another sample.

Each structure is followed by: Mtb MenB inh	Polio RdRp inh	Polio RdRp inh intensity	Mtb MbtI inh
> CC(C)OC(=O)CSc1nnc(-c2ccccc2)o1
 : -23	101	94	10
> Cc1ccc(C2C(C(=O)/C=C/c3ccccc3)=C(O)C(=O)N2CCO)cc1 (configuration not stated)
 : -299	102	103	4
> O=C(Cc1ccccc1)Nc1ccccc1F
 : -45	100	101	-14
> O=C(COC(=O)c1n[nH]c2ccccc12)NC1CC1
 : ·	103	103	196
> Cc1cc2cc(CNC(=S)Nc3cccc(C)c3C)ccc2[nH]1
 : -55	102	107	-11
> C#CCOC(=O)Nc1nc(C)oc1C(F)(F)F
 : 5	100	99	14
> C=CCC(c1cc(Cl)ccc1N)S(=O)(=O)c1ccc(C)cc1 (configuration not stated)
 : -16	97	100	·
> CCOC(=O)c1c(C)c(C(=O)N2CCCCCC2)c(C)n1C
 : -14	102	104	-4
> COc1ccc(/C=N/n2c(C)cc(C)cc2=O)cc1
 : -23	102	95	12
> CCc1ccc(-n2c(SCc3nnc(-c4cccs4)o3)nc3ccccc3c2=O)cc1
 : -7	105	112	9
> O=C(NC1CCS(=O)(=O)C1)C1CCN(c2nccc(C(F)(F)F)n2)CC1 (configuration not stated)
 : 2	98	101	i
> CC12CCC3C(CC=C4CC(O)CCC43CO)C1CCC2OC(=O)c1ccccc1 (configuration not stated)
 : -17	101	117	0
> CC1CCN(C(=O)CN2C(=O)CSc3ncccc32)CC1
 : 1	104	102	-8
> Cc1cc(/C=C2\NC(=O)NC2=O)c(C)n1-c1cccnc1
 : -65	103	104	16
> N#Cc1cc2c(nc1SCCS(=O)(=O)Cc1ccc(Cl)cc1)CCCC2
 : 8	101	105	2
> O=c1sc(N2CCN(c3ccccc3F)CC2)nc2ccsc12
 : -10	101	103	-15
> C1=CC2/C(=N\Nc3ccccn3)CC2C1 (configuration not stated)
 : 5	113	124	-12
> COC(Cn1c(-c2cccc(S(=O)(=O)N(C)C)c2)nn(CN2CC(C)CC(C)C2)c1=S)OC (configuration not stated)
 : -7	106	112	10
> Cn1c(SCc2ccccc2)nnc1C1CCCNC1 (configuration not stated)
 : 3	102	102	7
> COc1ccc(C2SCCN2S(=O)(=O)c2ccc(NC(C)=O)cc2)cc1OC (configuration not stated)
 : -36	101	103	-13
> O=C(Nc1ccc(Cl)cc1)N1CCOC1c1cccs1 (configuration not stated)
 : 0	101	102	-6
> O=C(Nc1ccccc1)C1c2cccc[n+]2CC(=O)N1c1ccccc1 (configuration not stated)
 : 9	101	108	75
> O=C1/C(=C\c2ccccc2)N=C(c2ccccc2)N1c1ccccc1
 : -32	105	109	-73
> COc1ccc(-c2nc(C)c(CCNC(=O)c3cccc(C(F)(F)F)c3)s2)cc1
 : -18	101	103	102
> CC1CCc2ccccc2N1C(=O)c1cccs1 (configuration not stated)
 : ·	104	102	-4
> Cc1c2cnn(CC(=O)N3CCCC3)c(=O)c2c(C)n1Cc1ccccc1
 : -38	105	104	2
> Cc1nn(CCCC(=O)N2CCCC2)c(=O)c2c1sc1ccccc12
 : -20	101	98	-13
> CC(=O)N1N=C(c2cc3ccccc3o2)OC1c1c(C)[nH]c(=O)[nH]c1=O (configuration not stated)
 : -3	98	102	110
> Cc1nn(CCC#N)c(C)c1Oc1ccccc1O
 : ·	99	99	-12
> O=C(CSc1nnc2scc(-c3ccc(Cl)cc3)n12)c1ccc2c(c1)OCO2
 : 0	100	103	11
> CN1C(=O)/C(=C\c2ccc(Cl)cc2Cl)OC1=S
 : 3	102	107	4
> CC(=O)Oc1c(C)cc(C)c2ccc(C)nc12
 : -28	98	102	23
> COc1cc(/C=N/NC(=O)c2ccoc2C)ccc1OCC(=O)N1C(C)CCCC1C (configuration not stated)
 : -19	·	·	-6
> CNC(=O)COC(=O)c1cccn1C
 : 0	99	102	6
> O=C(NCC1CCCO1)N1CCOCC1 (configuration not stated)
 : -16	101	101	2
> CC1=CC(C)C2C(=O)N(Cc3ccc[n+](C)c3)C(=O)C2C1 (configuration not stated)
 : 0	101	101	-6
> O=C1CCC(C(=O)Nc2sc3c(c2-c2nc4ccccc4[nH]2)CCCC3)=NN1
 : -68	110	105	1
> Cc1ccc2nc(-c3cccc4ccccc34)[nH]c2c1
 : -3	104	111	109
> CC(C(=O)Nc1ccc(S(N)(=O)=O)cc1)N(C)Cc1ccccc1F (configuration not stated)
 : -9	104	107	-3
> Cc1[nH]c2ccccc2c1/C=N\NC(=O)Cn1nnc(-c2ccccc2)n1
 : -43	102	104	-10
> Cc1ccc(C)c(S(=O)(=O)N/N=C/c2ccc3c(c2)OCO3)c1
 : -48	104	97	5
> O=C(CCc1ccc(S(=O)(=O)N2CCCCCC2)cc1)NC1=NCCS1
 : -8	102	100	10
> CCN(CC)S(=O)(=O)c1ccc(-c2csc(=Nc3ccc(C)cc3)n2C)cc1
 : 12	100	97	13
> O=C(COC(=O)/C=C/c1ccccc1)NC1CC1
 : -3	107	108	3
> O=S(N=C(c1ccccc1)c1ccccc1)c1ccccc1 (configuration not stated)
 : -21	101	104	68*
> O=C(C1CCN(S(=O)(=O)c2ccc3nc(-c4ccccc4)[nH]c3c2)CC1)N1CCCCC1
 : -6	103	102	44
> CCOC(=O)C1CCCN(C(=O)c2ccc(CS(=O)(=O)Cc3ccccc3C)o2)C1 (configuration not stated)
 : -19	102	101	-3
> COc1ccc(-n2ncc3c2ncn2nc(COc4ccccc4C)nc32)cc1
 : -11	98	101	-1
> O=c1nc(NC2CCCC2)ccn1Cc1cccc(Br)c1
 : -24	106	109	·
> COc1ccc(CCNC(=O)C2CCN(c3ccc(N4CCOCC4)nn3)CC2)c(OC)c1
 : -27	106	106	-9

Continuation.
Each structure is followed by: Mtb MenB inh	Polio RdRp inh	Polio RdRp inh intensity	Mtb MbtI inh
> O=C(NCCN1Cc2ccccc2C1=O)Nc1cccc(Cl)c1
 : 2	99	106	·
> C[N+]1(C)C2CCC1CC(OC(=O)C(CO)c1ccccc1)C2 (configuration not stated)
 : 9&0	104&100	100&99	65*!
> C=C[C@]1(C)C=C2CC[C@@H]3[C@](C)(CCC[C@@]3(C)C(=O)O)[C@H]2CC1O (some centres not stated)
 : 6	98	103	·
> O=C(/C=C/N1CCOCC1)c1ccc(Cl)cc1
 : -1	102	106	5
> CCn1cc2c(n1)-c1c(oc(C(=O)NCc3cccnc3)c1C)CC2
 : -5	96	98	80
> CC(C)(C)c1nc2c(o1)OC(N)=C(C#N)C2c1ccc(Cl)cc1Cl (configuration not stated)
 : -22	103	110	·
> NCC1OC(OC2C(N)CC(N)C(OC3OC(CO)C(O)C(N)C3O)C2O)C(N)CC1O (configuration not stated)
 : -3	99	98	-3
> CCOC(=O)N1CCC(N2Cc3cccc(C(=O)NCCCN4CCCC4=O)c3C2=O)CC1
 : -1	99	102	-8
> CC(=O)N1CCC(N(C(=O)Nc2ccc(C)c(C)c2)C(C)C)CC1
 : 0	100	101	4
> COCCNC(=O)CN1C(=O)COc2ccccc21
 : -15	101	103	-9
> CC(C)NCC(O)COc1cccc2ccccc12 (configuration not stated)
 : -17&4&-7&-4	100*!	103*!	61&62&52&60
> CCOC(=O)N1CCC(NC(=O)Cc2cn(C)c3ccccc23)CC1
 : 2	100	101	43
> CC(c1cccs1)N(Cc1ccco1)C(=S)Nc1cc(F)cc(F)c1 (configuration not stated)
 : -8	101	103	-12
> COc1ccc(C(=O)Nc2sc(C)c(C)c2CN2CCN(CCO)CC2)cc1
 : 0	95	97	2
> CN(C)Cc1c(O)ccc2c(=O)c(-c3ccc(F)cc3)c(C(F)(F)F)oc12
 : -19	104	107	-16
> CSc1ncccc1C(=O)OCC(=O)NCc1ccccc1
 : -8	100	101	0
> Cc1ccc(N(C)S(=O)(=O)c2cc(Br)cnc2N)cc1
 : -19	103	105	-10
> CC1CCN(S(=O)(=O)c2ccc(S(=O)(=O)N3CCCN(Cc4ccccc4)C3)cc2)CC1
 : 36*	104	102	0
> CN(C1CCCCC1)S(=O)(=O)c1cc2c(cc1Cl)NC(=O)CO2
 : -2	100	102	-4
> O=C(Nc1cc(Cl)ccc1O)c1nc2ncccn2n1
 : -25	102	102	2
> Cc1ccc(N(C2CCS(=O)(=O)C2)S(C)(=O)=O)cc1 (configuration not stated)
 : -15	112	108	·
> N#Cc1cccc(NC(=O)c2sc3nc4c(cc3c2N)C2CCN4CC2)c1
 : -28	103	99	-192
> Cc1cc(-c2ccc(S(=O)(=O)N3CCc4ccccc43)s2)on1
 : -14	102	105	-15
> N=C(N)c1ccc(OCCCCCOc2ccc(C(=N)N)cc2)cc1
 : -1&-12	103&103	103&99	-9&-17
> NNC(=O)c1cc(OCC(F)(F)F)nc(OCC(F)(F)F)c1
 : -11	101	106	-11
> O=C1CN(c2ccc(Cl)cc2)C(=O)CN1/N=C/c1ccco1
 : -14	101	98	-10
> O=C(NC1CCc2ccccc21)c1ccc2c(c1)[nH]c(=O)n2C1CCCCC1 (configuration not stated)
 : -10	101	102	20
> O=C(CSC1=NS(=O)(=O)c2cc(Cl)ccc2N1)NCc1ccc2c(c1)OCO2
 : -1	103	102	4
> Cc1ccc(C)c(N2CCN(C(=O)CCN3C(=O)COc4ccccc43)CC2)c1
 : -21	103	102	-20
> N/C(=C\C(=O)C(F)(F)F)c1ccc(Cl)cc1
 : 5	100	102	3
> CCNC(=O)NNc1c(Cl)cccc1Cl
 : 9	98	101	-7
> O=C(c1ccc(-n2cnnn2)cc1)N(C1CCCCC1)C1CCCCC1
 : -20	105	103	-14
> CCCc1nc2ccccc2c(C(=O)O)c1CC
 : ·	103	107	-9
> CS(=O)(=O)Nc1ccccc1C(=O)N1CCOCC1
 : -17	101	103	-7
> CNC(=O)/C(=C\c1ccc2c(c1)OCO2)NC(=O)c1ccco1
 : -20	103	102	-162
> CCOC(=O)C1CCN(CN2C(=O)CCC2=O)CC1
 : -2	103	104	-3
> O=S(=O)(NC1CCCCC1Sc1nc2ccccc2o1)c1ccc(Cl)cc1 (configuration not stated)
 : -23	101	97	-10
> COC(=O)c1ccc(N2CCCC2)c(NS(=O)(=O)c2ccc(C)cc2)c1
 : -20	99	100	-1

A second format for some results above.
mol	Mtb MenB inh	Polio RdRp inh	Polio RdRp inh intensity	Mtb MbtI inh
CN(C1CCCCC1)S(=O)(=O)c1cc2c(cc1Cl)NC(=O)CO2	-2	100	102	-4
O=C(Nc1cc(Cl)ccc1O)c1nc2ncccn2n1	-25	102	102	2
Cc1ccc(N(C2CCS(=O)(=O)C2)S(C)(=O)=O)cc1 (configuration not stated)	-15	112	108	·
N#Cc1cccc(NC(=O)c2sc3nc4c(cc3c2N)C2CCN4CC2)c1	-28	103	99	-192
Cc1cc(-c2ccc(S(=O)(=O)N3CCc4ccccc43)s2)on1	-14	102	105	-15
N=C(N)c1ccc(OCCCCCOc2ccc(C(=N)N)cc2)cc1	-1&-12	103&103	103&99	-9&-17
NNC(=O)c1cc(OCC(F)(F)F)nc(OCC(F)(F)F)c1	-11	101	106	-11
O=C1CN(c2ccc(Cl)cc2)C(=O)CN1/N=C/c1ccco1	-14	101	98	-10
O=C(NC1CCc2ccccc21)c1ccc2c(c1)[nH]c(=O)n2C1CCCCC1 (configuration not stated)	-10	101	102	20
O=C(CSC1=NS(=O)(=O)c2cc(Cl)ccc2N1)NCc1ccc2c(c1)OCO2	-1	103	102	4
Cc1ccc(C)c(N2CCN(C(=O)CCN3C(=O)COc4ccccc43)CC2)c1	-21	103	102	-20
N/C(=C\C(=O)C(F)(F)F)c1ccc(Cl)cc1	5	100	102	3
CCNC(=O)NNc1c(Cl)cccc1Cl	9	98	101	-7
O=C(c1ccc(-n2cnnn2)cc1)N(C1CCCCC1)C1CCCCC1	-20	105	103	-14
CCCc1nc2ccccc2c(C(=O)O)c1CC	·	103	107	-9
CS(=O)(=O)Nc1ccccc1C(=O)N1CCOCC1	-17	101	103	-7
CNC(=O)/C(=C\c1ccc2c(c1)OCO2)NC(=O)c1ccco1	-20	103	102	-162

Screening results (PubChem BioAssay)
